Screening data: PubChem, Broad Institute
MITF_inh – inhibitors of MITF. TRPM1 promoter luciferase, luminescence, 24 h. inhibition, % (concentration not given with the values). 0.28% of 37,000 active. AID 2240;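 active = most replicates at 85% or more, or half of them and the mean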;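 also: human melanocyte line stably carrying TRPM1 promoter luciferase reporter; 0% = vehicle wells and 100% = a positive control; the first replicate is given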
* hit, by the source's call. These rows are one share of the data; rates above refer to the full screens.

SMILES MITF_inh
CCOc1ccc(NC(=O)Cn2cc(C(=O)c3cccs3)c3ccccc32)cc1 14.7
COc1ccc(OCC(=O)Nc2cc(-c3nc4ccccc4s3)ccc2C)cc1 -26.2
